YopH PTP inh – blocks Yersinia enterocolitica YopH tyrosine phosphatase | fluorescence Ex485/Em525 | hit rate 0.16% among 140,000 | inhibition, %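 (about 10 µM by stock and volumes)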;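 active means inhibition of 50% or more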;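 further: controls were vehicle for no effect and minimum signal wells for full effect; inactives centre near -20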
RecA splice inh – Mtb RecA intein splicing inhibition; AID 2221; hit rate 0.75% among 290,000; inhibition, %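 (about 9 µM by stock and volumes)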; P9WHJ3; cell-free RecA intein splicing, fluorescence; in the data active means inhibition above about 30%;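 further: 0% = vehicle wells and 100% = reference inhibitor control wells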
Target sequence (P9WHJ3 whole entry, looked up, canonical isoform): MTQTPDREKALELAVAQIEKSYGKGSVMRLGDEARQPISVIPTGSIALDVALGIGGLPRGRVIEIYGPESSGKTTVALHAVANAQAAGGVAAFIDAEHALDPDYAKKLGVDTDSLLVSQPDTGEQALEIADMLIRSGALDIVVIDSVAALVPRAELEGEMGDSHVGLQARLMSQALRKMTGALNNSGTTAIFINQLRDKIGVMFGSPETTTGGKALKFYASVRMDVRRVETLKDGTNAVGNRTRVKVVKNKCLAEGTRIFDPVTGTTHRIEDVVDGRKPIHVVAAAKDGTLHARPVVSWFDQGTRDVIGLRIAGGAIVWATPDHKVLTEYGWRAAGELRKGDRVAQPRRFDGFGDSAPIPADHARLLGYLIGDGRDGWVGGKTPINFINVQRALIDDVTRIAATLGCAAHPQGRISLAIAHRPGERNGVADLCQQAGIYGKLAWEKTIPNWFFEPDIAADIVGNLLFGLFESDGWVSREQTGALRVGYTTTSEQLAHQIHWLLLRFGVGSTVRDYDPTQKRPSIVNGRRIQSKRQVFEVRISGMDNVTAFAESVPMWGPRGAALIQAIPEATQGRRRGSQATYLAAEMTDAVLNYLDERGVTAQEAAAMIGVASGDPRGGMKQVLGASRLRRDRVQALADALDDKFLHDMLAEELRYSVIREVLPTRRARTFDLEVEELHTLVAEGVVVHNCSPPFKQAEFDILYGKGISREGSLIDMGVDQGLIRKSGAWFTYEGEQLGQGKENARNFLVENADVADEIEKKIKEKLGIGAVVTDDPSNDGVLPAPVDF
Mtb growth – M. tuberculosis H37Rv growth inhibitors, H37Rv strain (AID 1626); inhibition, % at 10 µM; hits with a dose series show IC50 in µM; M. tuberculosis H37Rv growth inhibition; higher % means a stronger effect; hit rate 0.95% among 220,000;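 active means confirmed in a dose series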;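 further: bacteria incubated seven days before Alamar blue readout; 0% = bacteria only wells and 100% = bacteria with antibiotic wells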
Mtb betalactam – beta-lactam sensitization of Mtb H37Rv; AID 434955; hit rate 0.27% among 330,000; inhibition, % at 25 µM; M. tuberculosis H37Rv growth with meropenem, percent inhibition; hits of this screen are not shown here;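 active means about 74% or more and at least 40 points above the plate without the antibiotic, then above 30% in a dose series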;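 further: growth measured after seven days incubation then overnight dye step; 0% = bacteria only wells and 100% = bacteria with antibiotic; twin plates without the antibiotic show which effects depend on it; some results filed as inactive read as strong as hits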
Arbovirus inh – arbovirus infection inhibition. arbovirus infection cell-based antiviral screen. inhibition, % at 10 µM. hit rate 0.37% among 200,000. AID 1251;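 active means inhibition from about 30%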;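 further: bluetongue infection of BSR cells; cell survival read as ATP light after 72 h; 0% = infected wells without compound and 100% = uninfected wells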
Starred values were filed as active, the others as inactive; / = no result given.

SMILES	YopH PTP inh	RecA splice inh	Mtb growth	Mtb betalactam	Arbovirus inh
Cc1occc(=O)c1OCc1ccccc1	/	-0.1	5%	3	4
O=C(NC1CCCC1)c1nc2c(nnn2Cc2ccccc2Cl)c(=O)[nH]1	-25	0.7	-2%	2	3
Nc1nn(S(=O)(=O)c2cccc3nsnc23)cc1-c1ccc(Br)cc1	-2	-5.1	11%	-3	-10
CCCCN(Cc1ccco1)S(=O)(=O)c1ccc(-c2ccc(=O)[nH]n2)s1	/	-0.8	/	-1	/
COCC(C)n1c(SCc2cc(=O)n3cc(C)ccc3n2)nc2ccccc2c1=O (stereo not drawn)	/	-4.5	6%	-1	23
Cc1ccc(S(=O)(=O)N2CCN(C(=O)CC(C)n3cncn3)CC2)cc1C (stereo not drawn)	/	2.9	/	-8	/
Cn1c(=O)oc2cc(S(=O)(=O)N3CCN(C(=O)c4ccco4)CC3)ccc21	-30	/	-5%	-1	/
COc1ccc(CNC(C)Cc2cccs2)cc1 (stereo not drawn)	/	-0.4	8%	-2	7
O=c1oc2ccccc2c(Nc2ccc(Cl)cc2)c1[N+](=O)[O-]	/	2.3	-3%	4	/
Cn1c(CCCNC(=O)c2ccccc2)nc2ccccc21	-34	1.0	-8%	-12	-6
CC(C(=O)OCC(=O)c1c(N)n(C)c(=O)n(C)c1=O)N1C(=O)c2ccccc2C1=O (stereo not drawn)	-23	-0.3	12%	-7	10
CC(C)(C)[C@@H]1C=C(C(=O)N2CCOCC2)O[C@H](OCc2ccc(CO)cc2)C1	/	0.6	3%	-5	5
CCOC(=O)c1c(C)n(Cc2ccc(F)cc2)c2ccc(O)cc12	/	0.9	0%	2	/
O=C(Nc1ccccc1)N1CCCC2CCCCC21 (stereo not drawn)	-48	0.8	9%	17	8
CCOC(=O)C1CCCN(C(=S)Nc2ccc(Nc3ccccc3)cc2)C1 (stereo not drawn)	/	4.3	6%	3	-6

Part of the list above, as labelled records.
> CCOC(=O)c1c(C)n(Cc2ccc(F)cc2)c2ccc(O)cc12
  YopH PTP inh: /	RecA splice inh: 0.9	Mtb growth: 0%	Mtb betalactam: 2	Arbovirus inh: /
> O=C(Nc1ccccc1)N1CCCC2CCCCC21 (stereo not drawn)
  YopH PTP inh: -48	RecA splice inh: 0.8	Mtb growth: 9%	Mtb betalactam: 17	Arbovirus inh: 8
> CCOC(=O)C1CCCN(C(=S)Nc2ccc(Nc3ccccc3)cc2)C1 (stereo not drawn)
  YopH PTP inh: /	RecA splice inh: 4.3	Mtb growth: 6%	Mtb betalactam: 3	Arbovirus inh: -6

Next part.
SMILES	YopH PTP inh	RecA splice inh	Mtb growth	Mtb betalactam	Arbovirus inh
O=C(CSCc1ccc(Cl)cc1)Nc1nccs1	24	12	6%	-9	4
O=C(c1ccc(C#CC2(O)CCCCC2)cc1)N1CCOCC1	-30	1.3	-5%	-21	7
Cc1cc(Cl)ccc1OCC(=O)NC1CCCC1	-9	1.3	17%	5	6
CCn1cc(Br)c(C(=O)Nc2ccc(C(=O)OC(C)C)cc2)n1	-7	2.6	5%	97	2
O=C1/C(=C/c2ccncc2)N=C2CCCCCN12	/	-0.6	-1%	-5	/
Cc1ccc(C)c(NC(=S)NNC(=O)c2csc(C)c2)c1	-32	2.9	9%	-4	1
O=C(NCCc1ccc(Cl)cc1)Nc1cccc(Cl)c1	-14	0.8	1%	43	6
Cc1c(C#N)c(N=CN(C)C)c(C(=O)c2ccccc2)n1-c1ccc(Br)cc1	-3	3.1	-5%	-1	6
Cc1cc(C)cc(C(=O)NN2CCN(C)CC2)c1	/	-5.4	2%	0	-3
COc1ccc(Cl)cc1NC(=O)/C=C\C(=O)O	-32	-0.6	-3%	/	0
COc1ccc(CCN(Cc2nc(-c3ccccc3)no2)Cc2nc(-c3ccccc3)no2)cc1OC	-15	-6.6	3%	-1	1
O=C(NCc1ccccn1)c1ccc(OC2CCN(Cc3ccccc3)CC2)cc1	/	-0.1	/	-11	/
COc1ccc(S(=O)(=O)N(CC(=O)O)c2ccccn2)cc1	-21	-2.6	/	-12	4
O=C(c1ccc2c(=O)n(CCc3ccccc3)c(=O)[nH]c2c1)N1CCN(c2ccccc2)CC1	/	0.2	/	3	/
O=[N+]([O-])c1cccc(-c2nc(-c3ccccc3)c(-c3cccs3)[nH]2)c1	-27	0.4	5%	-5	0
CC#CP(=O)(OCC)C(O)(c1ccccc1)C(F)(F)F (stereo not drawn)	-23	0.5	-3%	-7	1
COc1ccc(Cl)cc1NC(=O)C/C(C)=N/NC(=O)C(=O)NCc1ccccc1	/	-2.5	/	2	/
Cc1nc(NCCc2ccccc2)c2nnn(Cc3ccccc3)c2n1	/	1.7	/	0	/
COc1ccc(/C=N\NC(=O)c2ccccc2Cl)cc1COc1c(F)c(F)c(F)c(F)c1F	/	0.8	/	0	/
O=C(CC12CC3CC(CC(C3)C1)C2)N/N=C/c1ccc([N+](=O)[O-])o1	-26	13	/	100	-12
Cc1ccc(OCC(=O)N(C)CC(=O)Nc2ccc(F)c(F)c2F)cc1	/	2.5	/	-16	/
O=C(c1cc(=O)c2ccccc2o1)N1CCN(c2ccccc2F)CC1	/	-1.1	2%	-10	15
COc1cc2c(cc1NC(=O)c1ccncc1)oc1ccccc12	-3	-4.8	-2%	36	-14
CCOC(=O)C1=C(c2ccccc2)Nc2ncnn2C1c1ccccn1 (stereo not drawn)	-48	-2.5	-2%	-3	4
COc1cccc(NC(=S)N2CCC(c3ccc(C)cc3)C2)c1 (stereo not drawn)	/	2.7	/	5	/
Cc1ccc(NC(=S)NNC(=O)c2nnn(-c3ccccc3)c2C)cc1	-28	2.0	-2%	3	-7
CCC(=O)c1ccc(OCc2ccccc2)c(OC)c1	-30	0.6	2%	4	-5
Cc1ccc2c(c1)/C(=C/c1ccc(F)cc1)C(=O)N2	/	1.2	/	12	/
Cc1cccc(-n2cc(C#N)c(=O)[nH]c2=O)n1	-23	-1.9	-2%	-13	-6
CCOC(=O)c1c(N)sc(C(O)(C(F)(F)F)C(F)(F)F)c1-c1ccc(F)cc1	-11	5.2	-4%	4	-35
CCCCN(C(=O)C1=COCCO1)c1c(N)n(CCC)c(=O)[nH]c1=O	/	1.8	/	-4	/
O=C(NC1CCCCCC1)C1c2ccccc2C(=O)N1CCCN1CCOCC1 (stereo not drawn)	-30	1.1	-5%	-1	-2
C/C(=N/NS(=O)(=O)c1ccc(C)cc1C)c1ccc2c(c1)OCO2	/	0.1	/	4	/
COc1ccccc1C(=O)CSc1nccn1C	/	0.9	/	-2	/
O=C(Nc1cnc2ccccc2c1)c1cccc(-n2cnnn2)c1	-34	-4.7	5%	6	-2
Cc1ccc(-c2csc(NC(=O)Cc3cccs3)n2)cc1C	-10	3.0	0%	6	12
CC(=O)N1c2ccc(S(=O)(=O)NCCC(=O)NCCc3cccc(C)c3)cc2CC1C (stereo not drawn)	/	2.1	/	-3	/
COc1ccc(C(=O)NCC(=O)NCC(=O)OCc2ccc(Br)cc2)cc1	/	-0.2	9%	-1	-1
COCCn1c(C)cc(C(=O)COC(=O)c2cccc(O)c2)c1C	/	-1.1	-7%	1	/
O=C(NC(=S)Nc1ccccc1C(=O)O)c1cncc(Br)c1	/	-0.7	/	6	/
CCOC(=O)c1cccc(NC(=O)CSc2nc3ccccc3c(=O)n2CC)c1	-35	0.9	-2%	-7	-11
Cc1ccc(-c2csc3ncn(Cc4ccc(C(=O)O)cc4)c(=O)c23)cc1C	/	5.6	0%	7	-6
COC(=O)COc1ccc(S(=O)(=O)NCc2ccncc2)cc1	-6	2.2	/	0	-8
OCCOCCn1c(C2CCCN2c2nc(-c3ccc(F)cc3)cs2)nc2cc(C(F)(F)F)ccc21 (stereo not drawn)	/	10	3%	-7	/
Cc1ccc(S(=O)(=O)N2CCC(C(=O)NNC(=O)c3ccccc3O)CC2)cc1	/	-2.7	/	-1	/

Three entries from above, reformatted:
Cc1ccc(-c2csc(NC(=O)Cc3cccs3)n2)cc1C
  YopH PTP inh: -10; RecA splice inh: 3.0; Mtb growth: 0%; Mtb betalactam: 6; Arbovirus inh: 12
O=C(NC1CCCCCC1)C1c2ccccc2C(=O)N1CCCN1CCOCC1 (stereo not drawn)
  YopH PTP inh: -30; RecA splice inh: 1.1; Mtb growth: -5%; Mtb betalactam: -1; Arbovirus inh: -2
Cc1ccc(S(=O)(=O)N2CCC(C(=O)NNC(=O)c3ccccc3O)CC2)cc1
  YopH PTP inh: /; RecA splice inh: -2.7; Mtb growth: /; Mtb betalactam: -1; Arbovirus inh: /

Continued.
SMILES	YopH PTP inh	RecA splice inh	Mtb growth	Mtb betalactam	Arbovirus inh
O=C(CCCSc1nc2ccccc2[nH]1)Nc1ccccc1	-26	1.2	3%	-2	7
Cc1ccc(C(=O)OCC(=O)NCc2ccco2)cc1	6	0.6	-2%	-2	1
c1ccc(-c2nn3c(-c4ccccc4)nnc3s2)cc1	-26	-0.2	-4%	4	-5
COc1ccc(C2CC(C)(c3ccc(OC)cc3)Nc3ccccc3N2)cc1 (stereo not drawn)	/	-1.9	1%	-6	/
CN(C)/C=C(/C(=O)c1ccccc1Cl)S(C)(=O)=O	/	/	0%	/	-1
CC(C)c1ccc(SCc2noc(C(=O)NCC3CCCO3)c2C(=O)O)cc1 (stereo not drawn)	4	-0.5	-15%	-3	4
COc1ccc(Nc2c3c(nc4ccc(C)cc24)CCC3)cc1	/	4.2	/	69	/
O=C(Nc1nnc(-c2ccc(Br)cc2)o1)C1=COCCO1	/	0.7	/	97	/
Fc1ccc(-c2nnc(CSc3nnc4ccccn34)o2)cc1	-13	-1.2	0%	-1	7
CC(C)n1cc(NC(=O)C2CC(c3cccc(Br)c3)=NO2)cn1 (stereo not drawn)	-15	0.3	2%	-10	5
C=CCn1cc(C(=O)NCCCN(CC)CC)c(=O)c2cc(S(=O)(=O)N3CCC(C)CC3)ccc21	/	-3.7	/	3	/
COc1ccc(-n2nc(C(=O)O)c3ccccc3c2=O)c(OC)c1	-48	0.3	-7%	7	7
Cc1cccc(-c2nc3ccc(C(=O)N4CCC5(CC4)OCCO5)cc3nc2-c2cccc(C)c2)c1	/	11	/	72	/
CNC(=O)CSc1cn(CC(=O)N(C(C)C)C(C)C)c2ccccc12	/	4.4	4%	0	3
Cc1cnn(C(=O)c2oc3ccccc3c2C)c1	-29	-1.2	1%	-6	10
COc1ccc(NC(=O)c2sc3nc(Cc4ccccc4)cc(C(F)(F)F)c3c2N)cc1OC	3	-31	8%	-1	3
O=C(Nc1cccc(Cl)c1)N(Cc1nc2ccccc2c(=O)[nH]1)Cc1cccs1	-20	2.7	20%	-3	4
CC1CN(C)CCC1OC(=O)c1ccccc1 (stereo not drawn)	/	-2.1	/	-1	/
COCCN1C(=O)N[C@@H](c2cccs2)C(C(C)=O)=C1C	/	-1.0	0%	-8	/
O=C(CCC1CCCN(C(=O)c2ccoc2)C1)NCc1ccccc1F (stereo not drawn)	/	-1.6	7%	-3	1
Cn1c(SC2CCCCC2=O)nnc1-c1ccccc1F (stereo not drawn)	/	0.9	-1%	3	5
Cc1ccccc1-n1ccnc1SCC(=O)NCC1CCCO1 (stereo not drawn)	/	-0.9	/	-3	/
COc1ccc(C(=O)Nc2ccc(C(=O)NCC3CCCO3)cc2)c(OC)c1OC (stereo not drawn)	/	2.1	/	0	/
Cc1cc(Nc2ccc(O)cc2)n2c(nc3ccccc32)c1C#N	/	1.3	-9%	6	0
COc1ccc(OCC(=O)Nc2nnc(C)s2)cc1	0	0.1	-1%	-4	0
O=C(NCc1ccc2c(c1)OCO2)C1CCCN(S(=O)(=O)c2cccs2)C1 (stereo not drawn)	-33	0.2	1%	-1	-17
OC1CCCN(CC(O)COc2ccc(-c3ccccc3)cc2)C1 (stereo not drawn)	/	-1.7	/	2	/
COc1ccccc1CNC(=O)C/C(C)=N/NC(=O)COc1ccc(C)cc1Br	-31	3.8	-9%	-3	-13
CCCCC(CC)C(=O)NCC(C)NC(=O)C(CC)CCCC (stereo not drawn)	-34	0.1	3%	4	1
CC(c1ccccc1)c1nnc(NC(=O)Nc2ccccc2F)s1 (stereo not drawn)	/	-1.2	/	5	/
Cc1nc(-c2ccc(S(=O)(=O)Oc3ccccc3Cl)s2)cs1	/	0.4	0%	4	/
Cc1cc(N/N=C/c2ccccc2F)nc(NCc2ccccc2)n1	/	2.0	-4%	-4	/
CCN(CC(=O)NCc1ccccn1)S(=O)(=O)c1ccc(Cl)cc1	-42	-1.3	-7%	4	-1
COc1ccc(NC(=O)CN(C)C(=O)C(C)Sc2ccccc2)cc1 (stereo not drawn)	/	1.9	/	-18	/
COc1ccc(OCc2nnc(SCc3ccc(C(=O)O)cc3)o2)cc1	/	1.0	6%	4	0
COC(=O)c1cc(S(=O)(=O)NCC2CCN(Cc3ccc(F)cc3)CC2)cn1C	/	-1.6	/	13	/
O=C(Cc1ccsc1)N1CCN(S(=O)(=O)c2cccc(F)c2)CC1	/	-6.0	/	-8	/
CC(C)(C)C1CCC(=NNC(=O)CN(c2ccccc2)S(=O)(=O)c2ccccc2[N+](=O)[O-])CC1 (stereo not drawn)	-27	-0.8	-14%	0	0
COc1cc(OC)cc(C(=O)Nc2ccccc2NC(C)=O)c1	-21	5.1	2%	31	9
Cc1cnc(NC(=O)CSc2c(Cl)cccc2Cl)s1	-22	1.1	1%	0	-2

A portion of the library; rates above refer to the full screens.
